Source: PubChem BioAssay (National Center for Advancing Translational Sciences (NCATS))
ClpP mod = qHTS Assay for Activators of ClpP | actives 1.9% (n = 340,000) | purified B. subtilis ClpP, FRET peptide cleavage, 20 min | Potency, µM (top dose mostly 57.5 µM), for inactives: at the highest dose activity change, negative = active | ATP-dependent Clp protease proteolytic subunit (Bacillus subtilis (strain 168)), P80244; active = well fitted falling curve with a large enough effect; inconclusive = small, poorly fitted or top-dose-only effect; inactive = no such curve, though single readings can be large or run the other way; note: potency is the fitted concentration of half-maximal effect; the source files actives as falling curves though it sought activators and does not explain the sign; nearly all actives have a fitted effect of over 65% in size; many hits overshoot -100%
Target sequence (P80244 whole entry, looked up): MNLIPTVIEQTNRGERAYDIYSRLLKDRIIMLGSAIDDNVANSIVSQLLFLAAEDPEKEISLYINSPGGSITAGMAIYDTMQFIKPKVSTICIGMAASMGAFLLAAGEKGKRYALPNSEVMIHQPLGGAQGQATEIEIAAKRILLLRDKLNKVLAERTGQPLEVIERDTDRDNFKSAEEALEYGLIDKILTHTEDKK
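Buffer: 100 mM Tris/HCl pH8, 100 mM KCl, 0.05% low protease BSA, 2.5% glycerol, 0.01% Tween-20. ClpP 10 microg/mL final; 20 min RT; delta FRET normalized to ADEP and DMSO controls.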
Menin-MLL FL inh = qHTS Assay for Inhibitors Targeting the Menin-MLL Interaction in MLL Related Leukemias: Competition With Fluorescein Labeled MLL-derived Peptide; Fluorescence polarization, fluorescein-MLL peptide displacement from menin; FP activity change, % at 61.4 µM; 290,000 tested, under 10 active; inconclusive = falling polarisation curve, or a change in total fluorescence; inactive = total fluorescence flat and polarisation flat or rising; no compound was filed as active; the % refers to the polarisation; negative = inhibition;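 note: % of control where 0% means no effect; inhibitors lower the polarisation; unlabelled MLL peptide was the positive control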
gsp antag = qHTS for Antagonists of gsp, the Etiologic Mutation Responsible for Fibrous Dysplasia/McCune-Albright Syndrome: qHTS; gsp-mutant cells, cAMP HTRF, 30 min; control for the full effect not named in the record; actives 0.4% (n = 340,000); Potency, µM (series often up to 76.9 µM), inactives show at the highest dose activity change, negative = inhibition, usual class: inhibitors; active = falling curve of any shape with a large fitted effect; inconclusive = falling curve, mostly with a smaller effect; inactive = flat or rising curve; cell line not stated here;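 note: intracellular cAMP measured with PDE inhibitor Ro 20-1724 present during compound exposure; potency is the fitted concentration of half-maximal effect; % is set by controls: 0 for no effect and ±100 for the full control effect; nearly all actives have a fitted effect of over 65% in size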
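HTRF cAMP read-out (cAMP-d2 plus anti-cAMP antibody-K in lysis buffer, 30 min RT). Before lysis, cells are exposed to compounds with […] for 30 min at 37C in DPBS containing Ca/Mg, BSA and Tween 20.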
TRPV1 PAM = HTS Assay for Compounds that Act as Potentiators of the Vanilloid Receptor 1; TRPV1-expressing cells, Fluo-8 calcium influx, capsaicin EC20 potentiation; host cell line not named in the record; control for the full effect not named in the record; potentiation, % at 8.33 µM; actives 0.02% (n = 320,000); AID 540277, 2011; active means potentiation above 80%; inconclusive means 30% to 80%; inactive means below 30%; note: 0% is about no effect
Target sequence (Q8NER1 whole entry, looked up): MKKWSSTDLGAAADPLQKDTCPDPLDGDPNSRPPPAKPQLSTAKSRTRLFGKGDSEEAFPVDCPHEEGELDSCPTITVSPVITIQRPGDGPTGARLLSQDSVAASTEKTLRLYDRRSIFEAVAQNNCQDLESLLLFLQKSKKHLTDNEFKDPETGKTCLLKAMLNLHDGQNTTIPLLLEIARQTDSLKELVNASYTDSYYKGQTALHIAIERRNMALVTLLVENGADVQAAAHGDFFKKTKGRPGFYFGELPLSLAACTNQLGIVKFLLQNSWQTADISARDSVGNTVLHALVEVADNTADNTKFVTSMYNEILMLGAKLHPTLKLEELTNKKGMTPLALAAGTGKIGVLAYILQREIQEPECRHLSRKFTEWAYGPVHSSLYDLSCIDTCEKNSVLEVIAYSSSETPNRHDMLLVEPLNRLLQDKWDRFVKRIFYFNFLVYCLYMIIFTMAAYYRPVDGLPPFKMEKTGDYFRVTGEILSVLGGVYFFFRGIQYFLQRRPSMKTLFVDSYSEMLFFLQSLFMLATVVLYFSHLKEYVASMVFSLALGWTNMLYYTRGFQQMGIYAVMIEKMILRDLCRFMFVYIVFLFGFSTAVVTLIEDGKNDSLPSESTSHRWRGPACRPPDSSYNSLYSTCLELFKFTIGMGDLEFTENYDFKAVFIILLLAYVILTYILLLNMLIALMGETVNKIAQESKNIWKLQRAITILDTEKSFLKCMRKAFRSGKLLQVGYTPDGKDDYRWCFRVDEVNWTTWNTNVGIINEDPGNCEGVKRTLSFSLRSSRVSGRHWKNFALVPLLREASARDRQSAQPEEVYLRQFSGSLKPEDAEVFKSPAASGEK
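Fluo-8 calcium influx in TRPV1-expressing cells, kinetic read (ex 480/em 520 nm). Compound added and read 3 min for agonist activity, followed by capsaicin at EC20 final and 2 min further read for enhancement.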
CtBP-E1A inh = qHTS Assay for Inhibitors of the CtBP/E1A Interaction | AlphaScreen GST-E1A/His-CtBP binding, 1536-well; hits give low values; control for the full effect not named in the record | activity change, % (concentration not given with the values) | CtBP / adenovirus E1A interaction (AlphaScreen) | actives 0.49% (n = 340,000); in the data active means activity change below about -65%; inconclusive means about -30% to -65%; inactive means above about -30%; note: % is set by controls: 0 for no effect and ±100 for the full control effect
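Homogeneous bead-based format: GST-tagged E1A captured on glutathione donor beads, His-tagged CtBP on nickel acceptor beads; compounds precede bead addition by 2 h at 37 °C.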
gsp ag = qHTS for Agonist of gsp, the Etiologic Mutation Responsible for Fibrous Dysplasia/McCune-Albright Syndrome: qHTS. gsp mutant cells, cAMP HTRF, 30 min; control for the full effect not named in the record. actives 0.13% (n = 340,000). AID 624287, 2012. Potency, µM (doses to about 76.9 µM), for inactives: at the highest dose activation (cAMP increase), hits mostly activators; active = well fitted activation curve with a large enough effect; inconclusive = small, poorly fitted or top-dose-only effect, or another doubt; inactive = no such curve, though single readings can be large or run the other way; cell line not stated here;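 note: phosphodiesterase inhibitor Ro 20-1724 added with compounds to block cAMP breakdown; potency is the fitted concentration of half-maximal effect; nearly all actives have a fitted effect of over 60% in size; about a fifth of the inactives were tested at one dose only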
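Cells stably selected in G418 were plated at 2000/well, grown 16-24 hr, then given compounds in DMSO with the PDE inhibitor […] (300 uM solution added) for 30 min at 37C; cAMP was read by HTRF.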
Sfp inh = qHTS Assay for Inhibitors of Bacillus subtilis Sfp phosphopantetheinyl transferase (PPTase) | Biochemical Sfp PPTase activity, qHTS | AID 1490, 2009 | actives 3.5% (n = 310,000) | 4'-phosphopantetheinyl transferase ffp (Bacillus subtilis), Q9F4F7 | Potency, µM, without a hit: max response, negative = inhibition, most hits filed as inhibitors; active = well fitted inhibition curve with a large enough effect; inconclusive = small, poorly fitted or top-dose-only effect, or another doubt; inactive = no such curve, though single readings can be large or run the other way;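 note: the enzyme is Sfp with the accession as filed and its product quenches rhodamine fluorescence; potency is the fitted concentration of half-maximal effect; 0% = enzyme reaction without inhibitor and -100% = no enzyme wells; top concentration of the series not given in the record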
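Reaction rates are the 30-min fluorescence difference (ex 525, em 598 nm) in wells containing 15 nM Sfp, 5 uM rhodamine-CoA and 12.5 uM BHQ-2-YbbR at pH 7.6 with 10 mM MgCl2.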
Active calls of the source: *; ? = inconclusive; · = no result given; ! = not confirmed by another sample; [ ] = dose if it differs, or a comment.

SMILES	ClpP mod	Menin-MLL FL inh	gsp antag	TRPV1 PAM	CtBP-E1A inh	gsp ag	Sfp inh
NS(=O)(=O)c1ccc(NC(=O)CSc2nc3ccccc3nc2N2CCOCC2)cc1	-3.2%	5.4	?	17	4	21%	9%
O=C(Nc1ccccc1F)N1CCC(NC(=O)C23CC4CC(CC(C4)C2)C3)CC1	·	0.7	-4%	-16	6	-16%	16%
NS(=O)(=O)c1cccc(NC(=O)c2ccno2)c1	-0.2%	2.8	3%	-7	1	?	5%
COc1cc(/C=C/c2ccc3cccc(O)c3n2)ccc1O	-14%	?	-8%	-1	·	?	?
COC(=O)c1[nH]c2cccc(OC)c2c1NC(=O)CN1CC(C)OC(C)C1 (stereo not given)	?	2.7	0%	-1	5	6%	27%
Cc1ccc(C)c(N2CCN(C3CCCCC3NS(=O)(=O)c3ccccc3)CC2)c1 (stereo not given)	-6.1%	-7.0	0%	5	0	-61%[inhibitor]	-6%
Cc1ccc(C(C)(C)C)c(SCC(=O)Nc2nnc(C)s2)c1	-1.3%	8.0	2%	-4	-18	16%[15.4 µM]	18%
CCOc1cccc(NC(=O)CSc2sc3c(O)cc(=O)[nH]c3c2C#N)c1	·	28	-25%	8	0	8%[15.4 µM]	35µM*
COC(=O)c1ccc(Cl)c(-c2ccc(/C=N/NC(=O)Nc3ccccc3)o2)c1	-12%	-2.4	-7%	17	0	-9%	28%
Cc1ccc(S(=O)(=O)N2CCCC2=O)c(C)c1N(C)S(C)(=O)=O	-1.9%	2.2	-7%	-2	8	8%[15.4 µM]	10%
Cc1ccc(NC(=O)CSCC(=O)N=c2sccn2C)cc1	0.7%	·	-2%	-5	8	-25%	·
COc1ccc(S(=O)(=O)N2CCSCC2)cc1C(N)=O	·	6.2	0%	19	2	-18%	3%
COc1ccc(S(=O)(=O)N2CCN(Cc3ccc4c(c3)OCO4)CC2)cc1	-0.4%	·	-2%	-7	-1	?	14%
COC(=O)CN(c1ccc(OC)c(OC)c1)S(C)(=O)=O	-0.1%	-8.2	0%	-13	3	?	10%
Cc1cc(C)n(/C(=C\N(C)C)C(=O)c2cccc([N+](=O)[O-])c2)n1	0.2%	1.3	-3%	2	·	-51%[inhibitor]	18%
CCCOc1ccc(N2C(=O)CC(N3CCN(CCN=CC4=C(O)CC(C)(C)CC4=O)CC3)C2=O)cc1 (stereo not given)	·	-5.1	-2%	12	0	-9%[15.4 µM]	28%
Cc1ccc(OCCNc2ccc(S(=O)(=O)N3CCCC3)cn2)cc1	·	·	-6%	0	9	1%[15.4 µM]	·
COc1ccc2sc(/C=C/c3ccccc3O)[n+](C)c2c1	·	?	?	0	0	-19%	56µM*
Cc1nn(-c2ncccn2)c2c1C(=O)CC(C)(C)C2Br (stereo not given)	2.8%	·	1%	·	-8	·	·
CCCN1CCN(C(=O)CCS(=O)(=O)c2cc3c(cc2Cl)NC(=O)CO3)CC1	-0.9%	2.2	6%	-4	3	-21%	4%
N#C/C(=C\c1ccc(N2CCOCC2)o1)C(=O)Nc1ccc(O)cc1	·	?	?	7	?	?	0%
O=C(NNc1c2ccccc2nc2ccccc12)c1ccccc1O	·	-1.0	?	0	-73*	-11%	?
COc1ccc(OCc2nnc(SCC(=O)N3CCCC3)o2)cc1	·	-3.2	2%	-7	7	-16%	-1%
COc1ccc(CNC(=O)C2CC(c3cc(C(F)(F)F)cc(C(F)(F)F)c3)=NO2)cc1 (stereo not given)	0.4%	1.5	14%	22	8	·	7%
O=C(COC(=O)COc1ccc(Cl)cc1)NCCCc1ccccc1	·	·	3%	·	10	-10%[15.4 µM]	·
Later entries:
SMILES	ClpP mod	Menin-MLL FL inh	gsp antag	TRPV1 PAM	CtBP-E1A inh	gsp ag	Sfp inh
O=C(NC(=S)N1CCc2ccccc21)c1ccco1	·	0.6	-5%	-7	3	19%	6%
Cc1cccc(NC(=O)CN2C(=O)C3CC=CCC3C2=O)c1C (stereo not given)	-0.6%	·	·	·	14	-34%	·
Cc1ccc(C)c(NS(=O)(=O)c2c(C)[nH]c(C)c2C(=O)N2CCCCC2)c1	0.3%	6.4	-12%	6	-5	-9%	9%
CCSc1nc2c(c(=O)[nH]c(=O)n2C)n1CC(O)COc1ccccc1C (stereo not given)	-0.6%	-1.2	-2%	1	3	-4%	?
Cn1cccc1Cc1nnc(SCC(=O)N2CCOCC2)n1-c1ccc(F)cc1	-1.2%	-12	-6%	?	-2	-2%	?
CCOC(=O)c1sc2nc(-c3cccnc3)ccc2c1N	·	-0.9	10%	11	7	2%[15.4 µM]	0%
Cc1nc(-c2ccccc2)sc1C(N)=O	-7.5%	0.1	-5%	11	-3	9%	6%
C/C(=N/NC(=O)CNC(=O)c1cccnc1)c1ccc(Cl)c(Cl)c1	8.4%	6.2	5%	2	4	18%	0%
CSc1nsc(SC)c1NC(=O)Nc1ccccc1C	·	4.5	6%	10	·	1%[15.4 µM]	-3%
COc1ccccc1Nc1nc2ccc(C)cc2cc1C#N	25µM*	-5.3	13%	-2	23	19%	-21%
CCOC(=O)N1CCN(C(=O)C2CCCN(c3ncnc4c3sc3cccc(F)c34)C2)CC1 (stereo not given)	·	·	-14%	·	11	24%	·
O=C(NCC1COc2ccccc2O1)Nc1ccccc1F (stereo not given)	0.4%	4.0	-10%	-14	4	-6%	13%
CN(C(=O)c1ccccc1NC(=O)C(F)(F)F)c1ccccc1	-1.1%	1.3	0%	10	12	0%	7%
CN1CCCN(Cc2ccccc2C(F)(F)F)CC1	-3.7%	-0.4	11%	2	0	-17%	-28%
CCCN1CCn2c3c(c4cc(Br)ccc42)CCCC31 (stereo not given)	-1.4%	-5.1	-3%	-2	·	-31%[inhibitor]	-15%
O=C(N/N=C/c1cccnc1)c1cccc(Cl)c1	·	24	6%	-12	2	1%[15.4 µM]	6%
Cc1ccc(C(=O)N/C(=C\c2cccs2)c2nc3ccccc3[nH]2)cc1	?	4.5	-27%	11	17	-28%	17%
COc1ccc2c(c1)CCc1c-2n[nH]c1C(=O)O	?	-4.2	1%	2	0	-23%	6%
Cc1snc(S(=O)(=O)Cc2ccccc2Cl)c1C#N	0.2%	-0.3	5%	6	3	5%	15%
Cc1ccc2nc(NCc3ccccc3)c(C=O)c(=O)n2c1	-1.0%	5.9	3%	-2	-6	9%[15.4 µM]	-11%
CCNC(=O)/C(C#N)=C/c1c(N2CCCCCC2)nc2ccccn2c1=O	-9.6%	0.2	-8%	-16	·	9%	14%
CCCCOC(=O)NC1CCc2cc(OC)c(OC)c(OC)c2-c2ccc(SC)c(=O)cc21 (stereo not given)	0.2%	·	3%	·	-13	5%	·
CCOC(=O)C1(Cc2ccc(OC)cc2)CCN(C(=O)CCc2cnccn2)CC1	·	-0.4	1%	1	5	0%[15.4 µM]	1%
Cc1ccc(NC(=O)Cc2nnc(SCC(=O)c3ccc(Br)cc3)n2C)cc1Cl	·	-0.4	·	-2	·	·	-3%
CCOC(=O)N1CCC(N2Cc3cccc(C(=O)NCc4ccc5c(c4)OCO5)c3C2=O)CC1	-0.2%	2.1	?	8	4	-6%	5%

Quoted at random: two compounds from above, in no set order.
SMILES	ClpP mod	Menin-MLL FL inh	gsp antag	TRPV1 PAM	CtBP-E1A inh	gsp ag	Sfp inh
COc1ccccc1Nc1nc2ccc(C)cc2cc1C#N	25µM*	-5.3	13%	-2	23	19%	-21%
O=C(N/N=C/c1cccnc1)c1cccc(Cl)c1	·	24	6%	-12	2	1%[15.4 µM]	6%

Additional records.
SMILES	ClpP mod	Menin-MLL FL inh	gsp antag	TRPV1 PAM	CtBP-E1A inh	gsp ag	Sfp inh
CC(=O)c1ccc(N2CCN(c3ccc(C(N)=O)cc3[N+](=O)[O-])CC2)cc1	0.4%	-2.1	32µM*	-3	·	4%	-6%
CC(C)NC(=O)c1ccccc1S(=O)(=O)c1ccccc1C#N	-1.1%	-0.4	7%	4	11	3%	6%
Cc1ccc(NC(=O)Cn2cc3c(n2)CCC(C)C3)cc1 (stereo not given)	0.4%	-0.2	8%	-9	6	?	11%
CCOC(=O)c1ccc(NC(=O)COc2ccccc2OC)cc1	-1.7%	4.6	-5%	·	2	-1%	6%
CC(C)(C)C(=O)C(CO)(Oc1ccc(Cl)cc1)n1cncn1 (stereo not given)	0.1%	-1.2	0%	-2	-1	0%	15%
O=C(O)CCC(=O)Nc1ccccc1C(=O)NCc1ccccc1	0.2%	4.5	16%	14	3	?	18%
COc1cc(C2NC(=O)c3ccccc3O2)cc(OC)c1OC (stereo not given)	5.6%	4.9	9%	·	2	-2%	-6%
CC(=O)N=c1sc(S(N)(=O)=O)nn1C	1.3%	0.4	-2%	5	3	·	25µM*!
Cc1[nH]nc(SCC(=O)NCc2ccc(F)cc2)c1[N+](=O)[O-]	-0.6%	3.7	10%	-8	8	-9%[15.4 µM]	-3%
COc1cc(Cl)c([C@@H]2C[C@H]3CN(c4ccccc4)C(=O)[C@]34CCCN24)cc1OC	-2.4%	0.1	0%	10	-10	-67%[inhibitor]	2%
O=C(N/N=C/c1cccc(C(F)(F)F)c1)c1ccccc1O	-1.8%	1.6	-11%	-11	2	-1%[15.4 µM]	6%
O=C(Cc1ccc(Cl)cc1)NC1CCCCCC1	-4.3%	-2.2	0%	2	4	1%[15.4 µM]	6%
Cc1cc(-c2ccc(C)c(S(=O)(=O)NCCC(C)N3CCCCCC3)c2)on1 (stereo not given)	3.0%	-5.5	1%	-18	·	1%	13%
O=C(N/N=C/c1ccc(OCc2ccccc2)cc1)c1cc[n+](Cc2ccccc2)cc1	-0.3%	4.8	-9%	0	-1	12%[15.4 µM]	-14%
Nc1nc(-c2ccc(Cl)cc2)cn1N	-7.9%	5.2	9%	6	-12	-15%	1%
CC(C)(C)c1ccc(O)c(/C=N\O)c1	-0.9%	2.7	3%	6	3	1%	22%
O=C(Nc1nc2ccccc2c(=O)s1)c1ccc(F)cc1Cl	27%	-13	7%	-12	-3	14µM*	-13%

Not a hit list; any-hit rate near 5.3%.
